# Screens deposited in PubChem by several laboratories.
# MT1-MMP act inh: blocks activation of human MT1-MMP; P50281; HT1080 RFP-PRO-GFP cells, GFP/RFP ratio fluorescence, overnight; percent of plate control window, DMSO zero; GFP/RFP ratio change, % at 20 µM; 360,000 compounds, 0.061% hits; AID 651647;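 active = GFP/RFP ratio change of at least 30% with cell ATP level not reduced by more than half and red fluorescence within 50% of control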; note: strong numbers were not always called active
#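 Test system: HT1080 RFP-PRO-GFP cells; Benchmarks: DMSO and RFP-L50D-GFP cell wells; Timing: cells overnight before dosing, compound overnight, 37 °C, 5% CO2; Compound: one 20 µM compound dose with 1% DMSO; Read-out: GFP/RFP fluorescence ratio.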
# UUG fidelity: yeast start codon fidelity modulation | 350,000 compounds, 0.13% hits | S. cerevisiae UUG-firefly luciferase reporter, luminescence/redox ratio | activity score, % at 18.7 µM;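 active = replicate mean at a twofold rise or more, about +100% in these data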;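 note: firefly luciferase made from a UUG start codon reports start codon fidelity; reporter light over untreated wells divided by growth signal over untreated wells; some hits fall short of that in this replicate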
# PABP FP inh: PABP-poly(A) binding inhibition; 290,000 compounds, 1% hits; inhibition, % at 35 µM; AID 2014; PABP-poly(A) RNA binding, fluorescence polarization;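 active = 50% or more with normal probe brightness, or confirmed in later tests; inconclusive = above 50% with abnormal brightness, or retests that disagree; inactive = below 50% or failed in later tests; about a fifth of its hits are not listed in these tables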;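 note: calls also rest on retests at 20 µM and on dose response follow-up; controls were probe without protein and protein plus probe with vehicle; some compounds called inactive have numbers as strong as hits; many hits fall short of the cut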
# Target sequence (P11940 whole entry, looked up): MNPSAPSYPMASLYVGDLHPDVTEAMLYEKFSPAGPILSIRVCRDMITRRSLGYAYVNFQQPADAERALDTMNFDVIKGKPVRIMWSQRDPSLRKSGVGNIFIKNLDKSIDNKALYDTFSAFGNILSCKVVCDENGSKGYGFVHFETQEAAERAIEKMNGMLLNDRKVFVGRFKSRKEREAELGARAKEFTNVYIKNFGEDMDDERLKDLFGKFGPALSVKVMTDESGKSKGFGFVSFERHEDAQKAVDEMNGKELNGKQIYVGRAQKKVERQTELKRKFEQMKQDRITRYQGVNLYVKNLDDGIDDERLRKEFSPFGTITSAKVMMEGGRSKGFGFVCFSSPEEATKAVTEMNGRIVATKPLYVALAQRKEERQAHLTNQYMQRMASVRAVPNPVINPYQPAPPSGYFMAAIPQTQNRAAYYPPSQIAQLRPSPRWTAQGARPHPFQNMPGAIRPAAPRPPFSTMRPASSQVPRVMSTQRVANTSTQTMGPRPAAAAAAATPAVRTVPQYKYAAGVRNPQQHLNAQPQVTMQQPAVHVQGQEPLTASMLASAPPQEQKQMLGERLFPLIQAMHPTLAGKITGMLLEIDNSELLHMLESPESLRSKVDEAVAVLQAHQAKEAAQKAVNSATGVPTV
# HIV Env fusion: blocks HIV Env-driven cell-cell fusion; HeLa-JRFL Env/CEM21 cell fusion, luciferase; inhibition, % at 12.3 µM; 360,000 compounds, 1.1% hits; AID 651610;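 active = mean replicate inhibition score of at least 50 and every replicate individually at or above 50; inconclusive = only one of the two criteria met; inactive = mean below 50 and not all replicates reaching 50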;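 note: 0% = plate neutral controls and 100% = maraviroc near 300 nM; one replicate is shown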
# CSC inhib: cancer stem cell inhibition | inhibition, % at 7.5 µM | AID 2717 | cancer stem cell-like cells viability, luminescence | 300,000 compounds, 1.1% hits;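 active = mean at 75% or more and at least half the replicates too; inconclusive = mean and replicates disagree; tested in HMLE shEcad cells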;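 note: 0% = median of negative and 100% = median of positive control wells; the first replicate is given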
# Rce1 inhib: yeast Ras-converting enzyme inhibition; Q03530; yeast membranes, quenched prenylated peptide cleavage fluorescence; calls only; 290,000 compounds, 0.27% hits;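 active = fall in fluorescence gain of 50% or more versus controls, with final raw signal at or below 3038400; inconclusive = same 50% fall but final raw signal above 3038400; inactive = fall in fluorescence gain under 50%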;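 note: plate controls were neutral control wells for no effect and wells lacking membranes for full effect; tested at 10 µM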
# Target sequence (Q03530 whole entry, looked up): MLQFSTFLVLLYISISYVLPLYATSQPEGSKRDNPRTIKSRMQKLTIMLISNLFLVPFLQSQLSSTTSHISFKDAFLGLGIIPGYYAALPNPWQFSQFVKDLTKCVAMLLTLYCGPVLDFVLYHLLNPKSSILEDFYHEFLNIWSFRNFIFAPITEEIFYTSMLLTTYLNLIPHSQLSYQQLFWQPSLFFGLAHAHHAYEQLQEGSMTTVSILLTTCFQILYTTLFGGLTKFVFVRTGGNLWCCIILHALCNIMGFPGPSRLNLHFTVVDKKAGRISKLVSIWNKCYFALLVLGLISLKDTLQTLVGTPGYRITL
# eIF4H FP inh: inhibitors of RNA binding by human eIF4H; Q15056; eIF4H fluorescence polarization binding assay; inhibition, % at 35 µM; 290,000 compounds, 0.94% hits; AID 2012;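 active = 50% or more with normal probe brightness, or confirmed in later tests; inconclusive = above 50% with abnormal brightness, or retests that disagree; inactive = below 50% or failed in later tests; about a fifth of its hits are not listed in these tables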;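 note: calls also rest on retests at 20 µM and on dose response follow-up; 0% = protein and probe with vehicle and 100% = probe without protein; strong numbers were not always called active; many hits fall short of the cut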
# MT1-MMP act inh RFP: further read-out of MT1-MMP act inh, marked with its call; RFP signal change, %; measured here: RFP expression control read;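 0 = vehicle wells; hits needed this value within 50% of zero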
# Starred values were filed as active, the others as inactive; i = inactive; ? = inconclusive; / = not tested or not shown.
SMILES,MT1-MMP act inh,MT1-MMP act inh RFP,UUG fidelity,PABP FP inh,HIV Env fusion,CSC inhib,Rce1 inhib,eIF4H FP inh
Cc1ccc(CS(=O)Cc2ccc(C(=O)N3CCN(c4ccccc4)CC3)o2)cc1 (centres undefined),4,2,-12,13,4,-6,i,0
Cc1ccc(/C=N/n2c(C3CCCCC3)n[nH]c2=S)cc1,-4,-4,-21,4,16,13,i,10
CNc1nc2c(N)ncnc2n1[C@H]1O[C@@H](CO)[C@H](O)[C@@H]1O,6,-5,-12,8,4,1,i,8
CC1=C(C#N)C(Nc2ccc(Cl)cn2)(C(F)(F)F)C(=O)N1 (centres undefined),0,-1,/,-11,11,3,i,-13
Cc1ccc(S(=O)(=O)N(C)CC(=O)OCC(=O)N2CC(=O)Nc3ccccc32)cc1,1,3,/,-14,4,7,i,-1
CC(NC1c2ccccc2-c2ccccc21)c1ccccc1 (centres undefined),3,0,0,6,8,3,i,-1
CCN1C(=O)NC(c2ccc(Cl)cc2)C2=C1CCCC2=O (centres undefined),2,-1,-7,11,1,4,i,30
COc1ccc(OCC2c3cc(OC)c(OC)cc3CCN2C(=O)C(C)C)cc1 (centres undefined),3,2,/,-26,-1,/,i,-12
CN(/N=C\c1ccc(O)c(O)c1)c1nc(-c2ccccc2)cc(-c2ccccc2)n1,-2,-8,/,7,18,22,i,10
CC1CC(=O)N(CC(=O)NCc2ccccc2)c2ccccc2S1(=O)=O (centres undefined),1,6,-5,8,9,-4,i,0
CC(=O)OCCCN1C(=O)c2cccc3cc(Br)cc(c23)C1=O,/,/,/,-3,/,-9,i,4
Cc1cc(-c2ccccc2)nc(N2CCC(C(=O)NCc3ccccc3Cl)CC2)n1,/,/,/,10,/,/,i,14
COc1ccc(CN2C(=O)c3cccnc3C2=O)cc1S(=O)(=O)NC1CCCCC1,-3,0,-3,6,-16,4,i,-5
CCOC(=O)C1=C(CS(=O)(=O)c2ccccc2)NC(=O)NC1c1ccc(OC)c(OC)c1 (centres undefined),5,6,-6,9,1,-5,i,0
COc1ccc(CCNC(=O)CCC2COc3ccccc3O2)cc1OC (centres undefined),1,-2,-7,-7,9,-8,i,-8

# Given as tab-separated lines: 2 of the compounds above
Structure	MT1-MMP act inh	MT1-MMP act inh RFP	UUG fidelity	PABP FP inh	HIV Env fusion	CSC inhib	Rce1 inhib	eIF4H FP inh
Cc1ccc(/C=N/n2c(C3CCCCC3)n[nH]c2=S)cc1	-4	-4	-21	4	16	13	i	10
CNc1nc2c(N)ncnc2n1[C@H]1O[C@@H](CO)[C@H](O)[C@@H]1O	6	-5	-12	8	4	1	i	8

# Reprinted at random: 4 entries already listed, in no set order.
SMILES,MT1-MMP act inh,MT1-MMP act inh RFP,UUG fidelity,PABP FP inh,HIV Env fusion,CSC inhib,Rce1 inhib,eIF4H FP inh
CC(=O)OCCCN1C(=O)c2cccc3cc(Br)cc(c23)C1=O,/,/,/,-3,/,-9,i,4
COc1ccc(OCC2c3cc(OC)c(OC)cc3CCN2C(=O)C(C)C)cc1 (centres undefined),3,2,/,-26,-1,/,i,-12
CNc1nc2c(N)ncnc2n1[C@H]1O[C@@H](CO)[C@H](O)[C@@H]1O,6,-5,-12,8,4,1,i,8
CC1CC(=O)N(CC(=O)NCc2ccccc2)c2ccccc2S1(=O)=O (centres undefined),1,6,-5,8,9,-4,i,0

# Going on with the list.
SMILES,MT1-MMP act inh,MT1-MMP act inh RFP,UUG fidelity,PABP FP inh,HIV Env fusion,CSC inhib,Rce1 inhib,eIF4H FP inh
CCCCNC(=O)CCCCCn1c(=O)[nH]c2cc(C(=O)OC)ccc2c1=O,-5,-4,/,-4,-17,-1,i,2
COCCNc1nc(SCc2ccccc2)nc2sc3c(c12)CCC3,-4,-3,-6,5,?,-7,i,0
Cc1cccc2c1OCC/C2=N\NC(=O)COc1ccccc1Cl,5,-8,7,10,-150,-4,i,-7
Cc1c(C(=O)Nc2ccc(Br)cc2)cnn1C,1,3,-14,6,-23,-6,i,6
COc1ccccc1OC(=O)CN1C(=O)c2ccccc2C1=O,3,5,6,3,/,-3,i,-4
CC1(C(=O)NC2CCCC2)CCN1C(=O)Cc1ccc(-c2ccccc2)cc1 (centres undefined),2,-18,4,/,7,/,/,/
CC(C)(C)C(=O)CSc1nnc(-c2cccs2)n1CC1CCCO1 (centres undefined),6,8,-11,11,/,1,i,-2
CNC(=S)N1CCN(CCNC2=CC(=O)CC(C)(C)C2)CC1,-2,1,-11,-13,-10,-2,i,0
CN(C(=O)CC(NC(=O)c1ccccc1Cl)c1ccccc1)c1ccccc1 (centres undefined),-2,-2,-2,-2,3,10,i,-6
O=C(c1ccc([N+](=O)[O-])cc1[N+](=O)[O-])N1CCN(C(=O)C2CCCO2)CC1 (centres undefined),1,5,-22,/,/,9,/,/
CCn1c(-c2csc3c2CCC(C)C3)n[nH]c1=S (centres undefined),-1,-6,/,7,/,5,i,18
CCC(C)C(=O)Nc1cc(C(=O)OC)cc(C(=O)OC)c1 (centres undefined),-8,2,-25,-6,/,-1,i,-16
CC(C)CNC(=O)COC(=O)c1ccc2c(c1)C(=O)N(Cc1ccco1)C2=O,-2,2,/,6,2,-6,i,18
CCc1ccc(NC(=O)CN2C(=O)CC(C)S(=O)(=O)c3ccccc32)cc1 (centres undefined),6,3,2,-6,-2,-7,i,1
COc1ccc(NC(=O)COn2nnc3ccc(Cl)cc32)cc1OC,7,0,-5,0,/,2,i,-15
CCCn1c(CCNc2nc(-c3cccc(Br)c3)cs2)nc2ccccc21,0,-1,-5,/,5,/,/,/
CC(O)CNc1nc2c(c(=O)n(C)c(=O)n2C)n1Cc1cccc(C(F)(F)F)c1 (centres undefined),13,-1,47,-9,22,-17,i,2
C#CCOCCOCCOCCNc1nc(N2CCN(C(=O)[C@H](CO)n3cc([C@@H](N)C(C)C)nn3)CC2)nc(N2CCN(C(=O)[C@H](CCC(=O)O)n3cc([C@@H](N)[C@H](C)CC)nn3)CC2)n1,0,2,6,/,-11,/,/,/
O=C(NC1CCCCCCC1)c1cc(F)c(F)cc1Cl,3,2,-2,6,-6,-4,/,-4
CCOc1ccc(N(CC(=O)Nc2c(C)n(C)n(-c3ccccc3)c2=O)S(=O)(=O)c2ccccc2)cc1,2,5,/,-14,6,-5,i,-5
COc1ccc2c(c1)c(C(=O)N/N=C/c1cccc(Br)c1)c(C)n2C,-4,-10,/,-1,14,-1,i,3
Cc1c(NC(=O)Nc2ccc(Cl)cc2Cl)c(=O)n(-c2ccccc2)n1C,0,2,/,-9,14,-4,i,-3
O=C(COc1ccc([N+](=O)[O-])cc1)Nc1ccc2[nH]c(=O)[nH]c2c1,2,2,/,/,-36,-6,i,/
CCOC(=O)N/N=C1\CC(C)CC(C)(C)C1 (centres undefined),2,-1,-11,-3,-11,13,i,5
COC(=O)[C@@H]1C[C@@]2(O)[C@@H](O)[C@@H](O)[C@@H](O)C[C@H]2N1Cc1ccc(C)s1,-3,2,-19,-7,14,1,i,-2
COCCNC(=O)C1CCCN(Cc2cccc(C(F)(F)F)c2)CC1 (centres undefined),1,4,0,/,-6,/,/,/
CCOC(=O)N1CCN(C(=O)C2CCN(S(=O)(=O)c3ccccc3)CC2)CC1,-9,5,-17,5,-49,-12,i,2
COc1cccc(CNCC2CCCO2)c1 (centres undefined),1,4,-17,4,-4,-11,i,9
Cc1ccc(C(=O)CSc2nnc(-c3cccs3)n2C)o1,0,4,-24,4,-8,-2,i,1
COc1ccc(NC(=O)CN(c2ccccc2)S(=O)(=O)N(C)C)cc1OC,2,2,5,15,/,-8,i,35
C=CCn1c(C(CC(C)C)CC(C)O)n[nH]c1=S (centres undefined),-1,5,/,-3,0,1,i,-2
CCOC(=O)C(C)Sc1nc(-c2ccco2)cc(C(F)(F)F)c1C#N (centres undefined),-8,1,6,6,35,25,i,3
Cc1ccc(NC(=O)CCC(=O)OC(C)C(=O)c2ccccc2)cc1 (centres undefined),4,3,-13,6,-12,-7,i,6
Cc1cc(C)cc(C(=O)OCC(=O)NCC(F)(F)F)c1,5,7,/,0,5,-9,i,-9
O=C(NCc1ccc(Cl)cc1)C1CCCN1C(=O)Nc1ccccc1 (centres undefined),-1,2,-12,4,0,-14,i,3
CCCc1cc(=O)[nH]c(SCC(=O)Nc2cccc(S(=O)(=O)N3CCOCC3)c2)n1,-1,5,3,/,-2,-5,/,/
COc1cccc(N/C(SC)=C(/C#N)C(=O)NCc2cccs2)c1,0,-2,/,-13,17,19,/,-7
Cc1ccc(-n2nc3c(c2NC(=O)CC(C)C)CS(=O)(=O)C3)cc1,0,-1,-14,-4,-3,-3,i,-8
Cc1ccc(-n2c(SCC(=O)N(C)C3CCS(=O)(=O)C3)nc3ccccc3c2=O)cc1 (centres undefined),-12,-4,/,28,16,-13,i,6
Cc1c(NC2=NC3(CCCCC3)Cc3ccccc32)c(=O)n(-c2ccccc2)n1C,-4,2,-1,-8,/,7,i,4
Clc1ccc(CSc2cc3c(nn2)-c2ccccc2CC3)cc1Cl,3,0,-21,2,/,44,i,1
COC(=O)c1c(NC(C)=O)sc(C(=O)Nc2ccccc2)c1C,4,5,-18,7,0,19,i,1
CCN(C(=S)NC(=O)c1ccccc1Br)C1CCCCC1,4,5,/,5,15,2,i,10
COc1ccc(S(=O)(=O)N2CCC(C(=O)N[C@@H](C)C(=O)NCc3ccco3)CC2)cc1,5,4,-7,/,-11,/,/,/
CC1CCN(S(=O)(=O)c2ccc3c(c2)oc(=O)n3CC(=O)NCc2ccc3c(c2)OCO3)CC1,2,-22,-14,0,14,6,i,-4
CCOC(=O)N1CCN(C(=O)c2ccc3c(=O)n4c(nc3c2)CCCCC4)CC1,/,/,/,-3,/,-17,i,5
Cc1ccc(OCCC(=O)Nc2ccc(S(=O)(=O)N3CCCC3)cc2)cc1,1,-1,0,/,-10,/,/,/
Clc1ccc2nc(C3CCCCC3)c(Cc3ccccc3)n2c1,2,4,7,/,19,/,/,/

# These rows are one share of the data (hit frequency here may not be typical).
